Screens from PubChem BioAssay.
YopH inh: inhibitors of Yersinia enterocolitica YopH tyrosine phosphatase | fluorescence Ex485/Em525 | inhibition, %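 (about 10 µM by stock and volumes)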 | hit rate 0.16% among 140,000 | AID 898;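 active = inhibition of 50% or more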;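 note: controls were vehicle for no effect and minimum signal wells for full effect; inactives centre near -20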
Mtb H37Rv: M. tuberculosis H37Rv growth inhibitors, H37Rv strain (AID 1626); hit rate 0.95% among 220,000; inhibition, % at 10 µM; hits with a dose series show IC50 in µM; M. tuberculosis H37Rv growth inhibition; higher % means a stronger effect;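 active = confirmed in a dose series; inconclusive = inhibition above 80% but not taken into the dose series; inactive = below 80% or under 30% at every dose of the series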;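 note: bacteria incubated seven days before Alamar blue readout; 0% = bacteria only wells and 100% = bacteria with antibiotic wells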
Arbovirus anti: antivirals against arbovirus infection | arbovirus infection cell-based antiviral screen | inhibition, % at 10 µM | hit rate 0.37% among 200,000 | AID 1251;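 active = inhibition from about 30%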;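 note: bluetongue infection of BSR cells; cell survival read as ATP light after 72 h; 0% = infected wells without compound and 100% = uninfected wells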
RecA intein inh: Mtb RecA intein splicing inhibition | P9WHJ3 | cell-free RecA intein splicing, fluorescence | inhibition, %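 (about 9 µM by stock and volumes)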 | hit rate 0.75% among 290,000; in the data active = inhibition above about 30%; inconclusive = no clear call, values can overlap the other calls;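 note: 0% = vehicle wells and 100% = reference inhibitor control wells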
Target sequence (P9WHJ3 whole entry, looked up): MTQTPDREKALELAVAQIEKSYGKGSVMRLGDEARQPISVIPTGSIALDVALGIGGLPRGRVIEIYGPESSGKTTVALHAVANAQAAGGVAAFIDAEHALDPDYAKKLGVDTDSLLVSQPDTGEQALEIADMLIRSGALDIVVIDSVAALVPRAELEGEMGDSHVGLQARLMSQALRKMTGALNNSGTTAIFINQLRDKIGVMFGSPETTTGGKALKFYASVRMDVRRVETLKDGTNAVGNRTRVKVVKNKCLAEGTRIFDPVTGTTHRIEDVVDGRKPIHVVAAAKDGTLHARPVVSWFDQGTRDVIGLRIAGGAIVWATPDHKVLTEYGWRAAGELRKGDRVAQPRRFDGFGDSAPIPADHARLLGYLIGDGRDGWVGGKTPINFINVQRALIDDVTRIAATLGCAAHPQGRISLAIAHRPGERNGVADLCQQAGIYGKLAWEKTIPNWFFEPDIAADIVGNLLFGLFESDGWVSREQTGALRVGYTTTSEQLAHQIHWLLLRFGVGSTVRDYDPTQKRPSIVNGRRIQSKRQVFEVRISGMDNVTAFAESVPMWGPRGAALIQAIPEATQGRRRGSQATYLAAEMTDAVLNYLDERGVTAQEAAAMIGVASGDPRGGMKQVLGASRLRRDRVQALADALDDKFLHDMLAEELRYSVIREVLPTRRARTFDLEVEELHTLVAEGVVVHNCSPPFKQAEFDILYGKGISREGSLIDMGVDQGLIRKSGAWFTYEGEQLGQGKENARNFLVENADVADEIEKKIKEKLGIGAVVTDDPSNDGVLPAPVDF
Mtb betalactam: beta-lactam sensitization of Mtb H37Rv. M. tuberculosis H37Rv growth with meropenem, percent inhibition; hits of this screen are not shown here. inhibition, % at 25 µM. hit rate 0.27% among 330,000. AID 434955;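 active = about 74% or more and at least 40 points above the plate without the antibiotic, then above 30% in a dose series; inconclusive = first-round hits that could not be retested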;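 note: growth measured after seven days incubation then overnight dye step; 0% = bacteria only wells and 100% = bacteria with antibiotic; twin plates without the antibiotic show which effects depend on it; some results filed as inactive read as strong as hits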
Arbovirus anti repeat: second read-out of Arbovirus anti, no call of its own (marks repeat the call); inhibition, %; measured here: 10K subset replicate screen; many hits read low in the repeat;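 first of two repeat runs on a subset; 0% = infected and 100% = uninfected wells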
An asterisk follows results filed as active; ? = inconclusive; / = not tested or not shown. This is a subset (hit frequency here may not be typical).

SMILES	YopH inh	Mtb H37Rv	Arbovirus anti	RecA intein inh	Mtb betalactam	others
Cc1c(CC(=O)O)c(=O)oc2cc3c(cc12)CCC(C)(C)O3	/	/	/	-1.5	2
COc1cccc(/C=C(\C(=O)O)c2ccccc2)c1	/	2%	7	4.2	13
Cc1ccc(S(=O)(=O)N(Cc2ccc(F)cc2)Cc2ccco2)cc1	-14	-1%	2	/	2
CN(C)CC(C)(C)CNS(=O)(=O)c1ccc(OC(F)(F)F)cc1	/	-4%	-5	0.5	-2
Cc1cc(=O)n2[nH]nnc2n1	/	-15%	/	-1.0	5
Cc1ccccc1C(=O)O/N=C(\N)c1cccc([N+](=O)[O-])c1	-44	?	-12	1.3	/
COc1ccc(C(=O)O/N=C(/c2ccccc2)c2ccncc2)cc1OC	/	4%	-4	2.7	96
Cc1ccccc1Nc1nc2ccccc2s1	-32	3%	9	3.7	5
CCOc1ccc(N2C(=O)CC(N3CCN(c4ccc(C(=O)c5ccncc5)cc4)CC3)C2=O)cc1 (stereo not given)	-12	-4%	/	3.1	13
O=C(CCCn1nnc(-c2cccnc2)n1)c1ccc(F)cc1	-31	5%	9	0.8	3
O=C(c1cccc(Cl)c1)N1CCCC(c2ccc(Cl)cc2)=N1	-30	18%	-27	6.8	98
CCOC(=O)C1CCCN(C(=O)c2ccc(OCC)cc2)C1 (stereo not given)	-35	-5%	4	-4.5	5
O=C(Cn1nnc(-c2ccncc2)n1)N1CCc2ccccc21	1	-22%	-4	0.5	2
CCOCCc1nnc(NC(=O)c2ccc(OC)c(OC)c2)s1	-52	-4%	-33	-0.2	-4
Cc1ccc(CNC(=O)CN(C)S(=O)(=O)c2cccc3cccnc23)cc1	-22	-8%	5	-1.4	2	Arbovirus anti repeat=3
COc1ccc(CCNC(=O)c2ccccc2NS(=O)(=O)c2c(F)cccc2F)cc1	/	/	/	1.9	9
CN(CC(=O)Nc1ccccc1F)CC(=O)Nc1ccc(F)c(F)c1F	/	9%	-2	-1.4	0
Cc1cc(C)cc(N(CCC#N)C(=O)COC(=O)CN2C(=O)NC(C)(C)C2=O)c1	/	/	/	-2.1	4
C=CCN(c1ccc(C(=O)Nc2ccc(C)c(C)c2)cc1)S(C)(=O)=O	-25	26%	-6	2.1	-1
N#CC(C#N)=C1C=CC=CN1/C(=C\c1ccccc1)C(=O)c1cccs1	-22	11%	6	-16	9
CC(NC(=O)c1ccccc1F)c1nnc(SCC(=O)NC2CCCC2)n1C (stereo not given)	/	/	/	2.9	-1
COc1ccc(/C=C2\SC(=S)N(CC(=O)NC3C=CS(=O)(=O)C3)C2=O)cc1 (stereo not given)	/	/	/	-3.8	-6
O=c1[nH]c2ccccc2n2c(C(F)(F)F)nnc12	/	/	/	-21	5
COc1cccc(OCCc2c(C)n[nH]c2C)c1	-20	-3%	10	-1.0	-4

Five structures out of the list, sorted by heavy-atom count, low to high:
SMILES	YopH inh	Mtb H37Rv	Arbovirus anti	RecA intein inh	Mtb betalactam	others
COc1cccc(OCCc2c(C)n[nH]c2C)c1	-20	-3%	10	-1.0	-4
CCOCCc1nnc(NC(=O)c2ccc(OC)c(OC)c2)s1	-52	-4%	-33	-0.2	-4
C=CCN(c1ccc(C(=O)Nc2ccc(C)c(C)c2)cc1)S(C)(=O)=O	-25	26%	-6	2.1	-1
COc1ccc(/C=C2\SC(=S)N(CC(=O)NC3C=CS(=O)(=O)C3)C2=O)cc1 (stereo not given)	/	/	/	-3.8	-6
Cc1cc(C)cc(N(CCC#N)C(=O)COC(=O)CN2C(=O)NC(C)(C)C2=O)c1	/	/	/	-2.1	4

(next part)
SMILES	YopH inh	Mtb H37Rv	Arbovirus anti	RecA intein inh	Mtb betalactam	others
CC(=O)N1CCN(c2ccc(NC(=O)c3ccc([N+](=O)[O-])cc3Cl)cc2)CC1	/	/	/	1.8	-2
C=CCSc1nnc(-c2cc3c(s2)-c2ccccc2CC3)o1	-26	19%	3	2.7	94
COc1ccc(-c2ccc(CCC(=O)O)n2CC(C)C)cc1	-9	1%	-14	-17	28
O=[N+]([O-])c1ccc(-n2nncc2-c2ccc(Cl)cc2)cc1	-17	0%	-5	1.5	/
O=C(c1ccc2nc(Cc3cccc(Cl)c3)oc2c1)N1CCC[C@H]1CO	/	/	/	-1.0	2
Cc1ccc(Nc2oc(C)nc2C#N)cc1	-37	-5%	-9	0.6	5
O=C(COC(=O)Cc1ccc(-c2ccccc2)cc1)NCc1ccccc1	-18	4%	-8	2.6	2
O=C(CCS(=O)(=O)c1ccccc1)Nc1cccc2c1C(=O)NC2=O	/	5%	3	-0.7	-7
CN(c1ccccc1)c1cc(=O)[nH]c(=O)[nH]1	-26	-3%	5	-3.2	9
Cc1ccc(NC(=O)CSc2nncn2-c2ccccn2)cc1Cl	/	/	/	1.0	4
COc1ccccc1CNC(=O)c1ccccc1N(C)S(C)(=O)=O	-4	3%	-2	-0.7	-6
CCOC(=O)CC1C(=O)NCCN1Cc1ccc(OC)c(OC)c1 (stereo not given)	/	-2%	0	-3.6	-6
CN(C)c1ccc(NC(=O)COC(=O)c2cc(=O)c3ccccc3o2)cc1	-23	-6%	11	-3.6	-1
O=c1c(Cc2c(F)cccc2Cl)c(O)ccn1CC1CCCO1 (stereo not given)	/	6%	6	-2.2	9
CCOC(=O)c1cc(CN2CCOCC2)oc1-c1ccccc1	-16	-6%	7	-1.8	-6
COc1ccc(NC(=O)CSc2nc3ccccc3nc2N2CCCC2)cc1Cl	/	/	/	1.3	-11
Cn1c(=O)n(CC(=O)Nc2cccnc2)c2ccccc21	31	-6%	/	1.7	-7
O=C(CCc1nc2ccccc2[nH]c1=O)N/N=C/c1ccccc1	/	-3%	2	3.8	-8
O=C(O)c1ccc(N/N=C/C(Br)=C/c2ccccc2)cc1	/	-4%	/	12	5
COCc1cc(=O)n2[nH]c(-c3cccs3)cc2n1	/	7%	/	0.4	3
CC1CCCCC1NC(=O)COC(=O)C12CC3CC(CC(Cl)(C3)C1)C2 (stereo not given)	/	4%	-3	/	-4
CCC(Sc1ncccc1C(=O)OC(C)C)C(=O)NCc1ccco1 (stereo not given)	-7	-8%	-1	5.4	/
CN(C)c1nc(N)ncc1-c1ccc(Oc2ccccc2)cc1	/	/	/	-1.1	3
C=CCNC(=O)CC(=O)N/N=C/c1cccs1	/	4%	8	3.4	-4

Of the compounds above, these have an NH in an aromatic ring:
SMILES	YopH inh	Mtb H37Rv	Arbovirus anti	RecA intein inh	Mtb betalactam	others
Cc1cc(=O)n2[nH]nnc2n1	/	-15%	/	-1.0	5
O=c1[nH]c2ccccc2n2c(C(F)(F)F)nnc12	/	/	/	-21	5
COc1cccc(OCCc2c(C)n[nH]c2C)c1	-20	-3%	10	-1.0	-4
CN(c1ccccc1)c1cc(=O)[nH]c(=O)[nH]1	-26	-3%	5	-3.2	9
O=C(CCc1nc2ccccc2[nH]c1=O)N/N=C/c1ccccc1	/	-3%	2	3.8	-8
COCc1cc(=O)n2[nH]c(-c3cccs3)cc2n1	/	7%	/	0.4	3

(more compounds)
SMILES	YopH inh	Mtb H37Rv	Arbovirus anti	RecA intein inh	Mtb betalactam	others
C=CCN(CC(=O)NCc1ccc(F)cc1)C(=O)c1csnn1	-13	-8%	4	0.5	-3
O=C(NC(=S)N1CCN(C/C=C/c2ccccc2)CC1)c1ccco1	/	?	17	0.4	93
O=C1CCC(=O)N1c1ccc(NCc2ccccc2Cl)c([N+](=O)[O-])c1	-31	12%	-3	-5.0	15
O=C(c1ccco1)N1CCN(C2CCCC2)CC1	-38	/	1	-1.7	7
Cc1ccc(-c2nc(N)sc2CC(=O)OCC(=O)NC2CCCC(C)C2C)cc1 (stereo not given)	19	-3%	9	3.1	6
COc1ccccc1CN(Cc1cc2cc(C)ccc2[nH]c1=O)Cc1nnnn1Cc1ccco1	-26	7%	-15	17	20
S=C(NCCSCc1ccc(Cl)c(Cl)c1)Nc1ccccc1	-12	40%	/	12	32
CC1CCCCN1C(=O)CSc1nnc(-c2ccc(Cl)s2)o1 (stereo not given)	-20	8%	7	/	41
O=C(COc1ccc(Cl)cc1)Nc1ccc2c(c1)CCC2	-25	13µM*	8	3.3	91
O=C(CN1C(=O)c2ccc([N+](=O)[O-])cc2C1=O)NC1CCCCCC1	/	/	/	-7.9	2
Cc1ccc(NC(=O)CSCC(N)=O)cc1C	30	1%	-1	4.3	-5
CCc1cc2c(cc3c(=O)n(CC(=O)N4CCN(C)CC4)ncn32)s1	/	/	/	-0.7	4
O=C(COC(=O)CCC(=O)c1ccc(Cl)cc1)NC1CC1	/	7%	16	-1.4	-1
CN(CCO)c1cc(N2CCCCC2)c2nonc2c1[N+](=O)[O-]	/	-9%	14	1.7	-2
Cc1cc(/C=N/NC(=O)Cn2c3ccccc3c(=O)c3ccccc32)c(C)n1-c1ccc(Cl)cc1	-20	6%	-9	-47	/
O=C(CNC(=O)c1ccc(Br)o1)NNC(=O)c1ccccc1F	/	/	/	-2.1	5
CCCc1cc(=O)oc2cc(C)cc(O)c12	-46	-5%	9	-3.6	-2
O=[N+]([O-])c1cc([N+](=O)[O-])c2cccnc2c1Oc1ccccc1O	-11	-5%	-6	-3.7	2
Cc1cc(C)n(CC(O)COc2ccccc2)n1 (stereo not given)	15	8%	4	5.4	-4
CSc1sccc1/C=C(/C#N)C(=O)c1ccco1	/	/	/	-7.1	-2
COc1cccc2cc(CC(=O)c3cc(C)ccc3C)c(=O)oc12	/	/	/	5.0	74
CC(=O)NC1(C(F)(F)F)NC(=O)N(C2CCCCC2)C1=O (stereo not given)	-144	-2%	-1	-4.7	-17
CC(NC(=O)CN1C(=O)c2ccccc2C1=O)c1ccccc1 (stereo not given)	/	/	/	-0.8	1
COc1cccc(CNC2CCCC2)c1	-33	3%	4	-2.6	-5

The last five compounds of the part above are carried over, then new ones follow:
SMILES	YopH inh	Mtb H37Rv	Arbovirus anti	RecA intein inh	Mtb betalactam	others
CSc1sccc1/C=C(/C#N)C(=O)c1ccco1	/	/	/	-7.1	-2
COc1cccc2cc(CC(=O)c3cc(C)ccc3C)c(=O)oc12	/	/	/	5.0	74
CC(=O)NC1(C(F)(F)F)NC(=O)N(C2CCCCC2)C1=O (stereo not given)	-144	-2%	-1	-4.7	-17
CC(NC(=O)CN1C(=O)c2ccccc2C1=O)c1ccccc1 (stereo not given)	/	/	/	-0.8	1
COc1cccc(CNC2CCCC2)c1	-33	3%	4	-2.6	-5
CCOC(=O)C1=C(COC(=O)c2cc(OC)c(OC)cc2[N+](=O)[O-])NC(=O)NC1C (stereo not given)	/	/	/	-0.7	-4
Cc1ccccc1C1=NCC(=S)Nc2ccc(Cl)cc21	-16	7%	-6	/	37
Cc1cc2nc(CCN(C(=S)NCC(C)C)C3CCCC3)[nH]c2cc1C	-32	12%	-19	-0.9	56
O=C(Cn1ccc([N+](=O)[O-])n1)N1CCCCC1	/	11%	1	1.2	-7
